Source: PubChem (Southern Research Institute)
V. cholerae motility: Vibrio cholerae motility inhibitors, OD read-out (AID 588778). Vibrio cholerae motility, OD read-out; higher % means a stronger effect; test concentration not given here; primary cut-off and reference of the scale not given here; strong numbers were not always called active. inhibition, %, or IC50 in µg/mL where a hit was titrated. 10,000 tested, under 10 active; in the data active means confirmed in a dose series
V. cholerae motility viability: recorded beside V. cholerae motility, whose call it bears; inhibition, %; measured here: bacterial viability at 10 ug/mL;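 higher means fewer living bacteria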
Active calls of the source: *. The list is partial; count on the stated rates, not on these rows.

For Nc1cc(N)nc(SCc2ccccc2C(F)(F)F)n1 the results were V. cholerae motility 22.1% and V. cholerae motility viability 35.8.
For C=CCOc1nc(N(C)C)nc(N(C)C)n1 the results were V. cholerae motility 24.1% and V. cholerae motility viability 6.4.
For S=C(NCCc1ccc(Cl)cc1)NCc1ccco1 the results were V. cholerae motility 5.8% and V. cholerae motility viability -3.8.
COc1ccccc1CN1CCN(Cc2ccccc2Cl)CC1 was read as V. cholerae motility 15.7% and V. cholerae motility viability 0.7.
`COC(=O)CCn1cnc(-c2ccccc2)c1-c1ccccc1` gave V. cholerae motility -8.8% and V. cholerae motility viability 2.6.
`Cc1c(=O)n(OCc2ccccn2)c2ccccc2[n+]1[O-]` gave V. cholerae motility 3.7% and V. cholerae motility viability -2.1.
CC(=O)C1C(=O)CC(C)(O)C(C(C)=O)C1c1ccc(N(C)C)cc1 (centres undefined) was read as V. cholerae motility -2.2% and V. cholerae motility viability -2.3.
`CCC1C(=O)N=C(SCC(=O)NC2CCCCC2)NC1=O` (centres undefined) gave V. cholerae motility -16.9% and V. cholerae motility viability -4.3.
`O=C1NC(c2ccccc2)(c2ccccc2)C(=O)N1CCOCCOc1ccccc1` gave V. cholerae motility 25.4% and V. cholerae motility viability 8.8.
`COc1ccc(-c2cc(-c3ccccc3)nc3n[nH]c(N)c23)cc1` gave V. cholerae motility -15.1% and V. cholerae motility viability -6.8.
O=C(OCc1ccc(Br)cc1)C(c1ccccc1)c1ccccc1 was read as V. cholerae motility -9.7% and V. cholerae motility viability -3.0.
Screening COCC(C)NC(=O)c1ccc([N+](=O)[O-])cc1Cl (centres undefined) returned V. cholerae motility 13.8% and V. cholerae motility viability 4.3.
`c1ccc(COn2nnc3ccccc32)c(COn2nnc3ccccc32)c1` gave V. cholerae motility 6.3% and V. cholerae motility viability -1.9.
Screening O=C(Cn1cnc2ccccc2c1=O)Nc1ccc(F)cc1Cl returned V. cholerae motility -2.0% and V. cholerae motility viability -5.9.
Cc1cc(NC(=O)CN2CCCCC2)no1 was read as V. cholerae motility 35.9% and V. cholerae motility viability 12.9.
Screening Cc1[nH]c2ccccc2c1C(=O)COc1ccccc1F returned V. cholerae motility -5.6% and V. cholerae motility viability -4.3.
Screening CC(=O)c1cccc(NC(=O)CSC2c3ccccc3-c3ccccc32)c1 returned V. cholerae motility 4.4% and V. cholerae motility viability 3.8.
For COC(=O)c1ccc(Cl)c(NC(=O)CSc2ncn[nH]2)c1 the results were V. cholerae motility 8.3% and V. cholerae motility viability 2.9.
`Cc1ccc(Cl)c(OCC(=O)NN2CCOCC2)c1` gave V. cholerae motility -1.5% and V. cholerae motility viability -5.6.
For C1=CC2c3cc(-c4ccccc4)ccc3NC(c3cccnc3)C2C1 (centres undefined) the results were V. cholerae motility 9.6% and V. cholerae motility viability 0.6.
`O=c1[nH]c(CN2CCN(Cc3ccc4c(c3)OCO4)CC2)nc2ccccc12` gave V. cholerae motility -3.4% and V. cholerae motility viability -6.7.
Screening O=C(Nc1cccc([N+](=O)[O-])c1)Nc1ccc(Cl)c(C(F)(F)F)c1 returned V. cholerae motility 94.4% and V. cholerae motility viability 99.9.
`CCOc1ccc2nc(SCc3ccc4c(c3)OCO4)sc2c1` gave V. cholerae motility -5.7% and V. cholerae motility viability -8.4.
O=C1NC(=S)NC(=O)C1c1ccccc1 was read as V. cholerae motility -12.3% and V. cholerae motility viability -1.9.

Entries above containing four or more nitrogen atoms:
For Nc1cc(N)nc(SCc2ccccc2C(F)(F)F)n1 the results were V. cholerae motility 22.1% and V. cholerae motility viability 35.8.
For C=CCOc1nc(N(C)C)nc(N(C)C)n1 the results were V. cholerae motility 24.1% and V. cholerae motility viability 6.4.
`COc1ccc(-c2cc(-c3ccccc3)nc3n[nH]c(N)c23)cc1` gave V. cholerae motility -15.1% and V. cholerae motility viability -6.8.
`c1ccc(COn2nnc3ccccc32)c(COn2nnc3ccccc32)c1` gave V. cholerae motility 6.3% and V. cholerae motility viability -1.9.
For COC(=O)c1ccc(Cl)c(NC(=O)CSc2ncn[nH]2)c1 the results were V. cholerae motility 8.3% and V. cholerae motility viability 2.9.
`O=c1[nH]c(CN2CCN(Cc3ccc4c(c3)OCO4)CC2)nc2ccccc12` gave V. cholerae motility -3.4% and V. cholerae motility viability -6.7.

The listing continues:
For O=C(c1ccc(S(=O)(=O)NCC2CCCO2)cc1)N1CCc2ccccc21 (centres undefined) the results were V. cholerae motility 9.4% and V. cholerae motility viability 29.2.
Cc1cc(C)nc(SCC(=O)Nc2cc([N+](=O)[O-])ccc2C)n1 was read as V. cholerae motility -11.4% and V. cholerae motility viability -0.5.
CCc1ccc(OCC(=O)Nc2ccc(S(=O)(=O)N3CCOCC3)cc2)c(Br)c1 was read as V. cholerae motility 17.2% and V. cholerae motility viability 7.3.
`CN1CCCC1C(O)(c1ccccc1)c1ccccc1` (centres undefined) gave V. cholerae motility 2.7% and V. cholerae motility viability 3.1.
Screening Fc1ccc(COc2ccc(Cl)cc2CNCC2CCCO2)cc1 (centres undefined) returned V. cholerae motility 12.6% and V. cholerae motility viability 8.0.
Screening Cc1ccc(F)c(NC(=O)CCc2ccccc2)c1 returned V. cholerae motility 16.7% and V. cholerae motility viability 19.2.
`COc1ccccc1C(=O)ON1C(=O)c2cccc3cccc(c23)C1=O` gave V. cholerae motility 98.2% and V. cholerae motility viability 96.4.
Screening C=C(C)CN(Cc1ccccc1)C(=S)Nc1ccccc1 returned V. cholerae motility -2.1% and V. cholerae motility viability -1.3.
For COCCNC(=S)Nc1cnc2ccccc2c1 the results were V. cholerae motility -2.5% and V. cholerae motility viability 1.6.
`S=C(NCC1CCCO1)Nc1ccc(I)cc1` (centres undefined) gave V. cholerae motility -15.0% and V. cholerae motility viability 0.6.
Screening O=C(CSCc1ccccc1Br)NC1CCCCCC1 returned V. cholerae motility 2.4% and V. cholerae motility viability 0.0.
CCN(CC)S(=O)(=O)c1ccc(Cl)c(NC(=O)c2ccncc2)c1 was read as V. cholerae motility 38.8% and V. cholerae motility viability 5.1.
`N#C/C(=C\c1cnn(-c2ccccc2)c1)c1nc2ccccc2[nH]1` gave V. cholerae motility 16.7% and V. cholerae motility viability 9.2.
Screening COc1ccc(NC(=O)c2c(F)c(F)c(F)c(F)c2F)cc1[N+](=O)[O-] returned V. cholerae motility 15.4% and V. cholerae motility viability 33.7.
Screening CC(=O)c1ccc(NC(=O)Nc2c(F)cc(F)cc2Br)cc1 returned V. cholerae motility 107.9% and V. cholerae motility viability 30.8.
Cn1c(=O)n(C)c2cc(NC=O)c(Br)cc21 was read as V. cholerae motility -12.4% and V. cholerae motility viability -6.6.
Screening COCCCNC(=S)NCCC1=CCCCC1 returned V. cholerae motility 26.8% and V. cholerae motility viability 9.1.
For CC(C)C(C(=O)O)c1ccc([N+](=O)[O-])cc1 (centres undefined) the results were V. cholerae motility 6.2% and V. cholerae motility viability -2.4.
CCOc1cccc(C(=O)NC(=S)Nc2ccc(Br)cc2C(=O)O)c1 was read as V. cholerae motility -8.9% and V. cholerae motility viability -5.1.
For Cc1c(CC(C)C)nc(C#N)c(N)c1-c1ccccc1 the results were V. cholerae motility -8.5% and V. cholerae motility viability -7.1.
For O=c1c2ccccc2nc2c3ccccc3c(NCc3ccccn3)nn12 the results were V. cholerae motility 29.7% and V. cholerae motility viability 41.9.
`CCCOc1ccc(C2=[N+]([O-])C3(CCCCC3=O)N(O)C2(C)C)cc1` (centres undefined) gave V. cholerae motility 5.9% and V. cholerae motility viability -5.3.
`c1ccc(OCCSC2=NCCN2)cc1` gave V. cholerae motility 17.9% and V. cholerae motility viability -5.0.
For CCN(CC)c1ccc(CNc2ccc(Br)cn2)cc1 the results were V. cholerae motility 4.7% and V. cholerae motility viability -3.1.
For CCCCN(c1nc(C)cc(OC)n1)S(=O)(=O)c1ccc(C)cc1 the results were V. cholerae motility 3.9% and V. cholerae motility viability -0.8.
For COc1ccc(Cl)cc1NC(=S)NC(=O)CSc1ccc(Cl)cc1 the results were V. cholerae motility -8.6% and V. cholerae motility viability -4.9.
For Cc1cc(=O)oc2cc(NC(=S)NNC(=O)CSCc3c(F)cccc3Cl)ccc12 the results were V. cholerae motility 7.1% and V. cholerae motility viability 1.3.
For NS(=O)(=O)c1ccc(NC(=O)CSc2nsc(SCC(=O)Nc3ccc(S(N)(=O)=O)cc3)n2)cc1 the results were V. cholerae motility -1.0% and V. cholerae motility viability -5.2.
S=C(NC1CCCCC1)N1CCN(c2ccccc2)CC1 was read as V. cholerae motility 12.0% and V. cholerae motility viability -2.1.
`O=S(=O)(NC(c1ccccc1)c1ccccc1)c1cccs1` gave V. cholerae motility -14.6% and V. cholerae motility viability -4.9.
For CC(C(=O)Nc1ccccc1N1CCN(C(=O)c2ccccc2)CC1)(c1ccccc1)c1ccccc1 the results were V. cholerae motility -26.0% and V. cholerae motility viability -12.3.
For Cn1nc(-c2ccc(N3CCCCC3)c(NC(=O)c3cccs3)c2)c2ccccc2c1=O the results were V. cholerae motility inactive and V. cholerae motility viability 0.2.
For O=C1CC(c2ccc(Cl)cc2)n2ncnc2N1 (centres undefined) the results were V. cholerae motility -5.9% and V. cholerae motility viability -5.9.
Screening Cc1cc(C)c(OCCOCCN(C)C)c(Br)c1 returned V. cholerae motility 15.5% and V. cholerae motility viability 9.7.
COc1cccc(CNc2nn[nH]n2)c1OC was read as V. cholerae motility 6.0% and V. cholerae motility viability 8.8.
Screening c1cnc2c(OCc3nc4ccccc4[nH]3)cccc2c1 returned V. cholerae motility 8.4% and V. cholerae motility viability -0.4.
Screening Cc1sc(-c2cccnc2)nc1-c1c[nH]c2ccccc12 returned V. cholerae motility 27.4% and V. cholerae motility viability 2.1.
Cc1cc(N2C(=O)c3ccc([N+](=O)[O-])cc3C2=O)no1 was read as V. cholerae motility -6.4% and V. cholerae motility viability -5.2.
For S=C(NCc1cccs1)Nc1ccc(Br)cc1Cl the results were V. cholerae motility 21.7% and V. cholerae motility viability -4.4.
`N#Cc1nc(-c2ccc(Cl)cc2)oc1NCc1cccc2c1OCO2` gave V. cholerae motility -3.0% and V. cholerae motility viability -1.7.
`S=c1[nH]c2cc(Cl)c3cccnc3c2o1` gave V. cholerae motility -2.4% and V. cholerae motility viability -2.8.
O=S(=O)(Nc1ccc2c(c1)OCCO2)c1ccc(C2CCCCC2)cc1 was read as V. cholerae motility 6.9% and V. cholerae motility viability 26.9.
Screening c1ccc(COc2cccc(CNCc3cccs3)c2)cc1 returned V. cholerae motility 28.8% and V. cholerae motility viability 13.1.
For COC(=O)c1c(C(=O)OC)c(C)n(Cc2ccco2)c1C the results were V. cholerae motility 0.6% and V. cholerae motility viability -4.2.
O=C(Nc1ncc([N+](=O)[O-])s1)C1COc2ccccc2O1 (centres undefined) was read as V. cholerae motility 40.8% and V. cholerae motility viability 11.6.
For N#Cc1ccc(-c2ccccc2)nc1SCc1ccccc1C(F)(F)F the results were V. cholerae motility -10.7% and V. cholerae motility viability -3.7.
For COc1ccc(CNCc2ccc(OC)c3ccccc23)c(OC)c1 the results were V. cholerae motility 20.1% and V. cholerae motility viability 21.5.
`COC(=O)c1c(C)c(C)c(C(=O)OC)c(C)c1C` gave V. cholerae motility 2.8% and V. cholerae motility viability -5.7.
`CCOC(=O)c1ccc(NC(=O)NNC(=O)Cc2c(Cl)cccc2Cl)cc1` gave V. cholerae motility 2.7% and V. cholerae motility viability -1.0.
`COc1cc(C=O)cc(Cl)c1OCc1cccc([N+](=O)[O-])c1` gave V. cholerae motility -10.6% and V. cholerae motility viability -3.5.
CC1CCCCC1NC(=O)CSc1nc2ccccc2c(=O)[nH]1 (centres undefined) was read as V. cholerae motility 1.8% and V. cholerae motility viability -2.9.
Cc1cc(C)n(C(=O)c2ccc(NC(=O)C3COc4ccccc4O3)cc2)n1 (centres undefined) was read as V. cholerae motility -17.8% and V. cholerae motility viability 0.9.
For CCOc1cccc(N2C(=O)CC(S/C(N)=N/N=C(\C)c3ccc(Cl)s3)C2=O)c1 (centres undefined) the results were V. cholerae motility 11.8% and V. cholerae motility viability 11.0.
Screening Fc1ccc(Nc2nc(Nc3ccc(F)cc3F)nc(N3CCOCC3)n2)cc1 returned V. cholerae motility -3.5% and V. cholerae motility viability -4.4.
Cc1ccc(C(=O)Nc2cc(Cl)c(O)c(Cl)c2C)cc1 was read as V. cholerae motility -6.4% and V. cholerae motility viability 1.8.
Screening Cn1c(Sc2ccc([N+](=O)[O-])c(C(=O)O)c2)nnc1-c1ccccc1 returned V. cholerae motility 1.2% and V. cholerae motility viability -5.2.
`C=CCn1c(CNC(=O)c2cccs2)nnc1SCC(=O)c1ccc(Br)cc1` gave V. cholerae motility 6.9% and V. cholerae motility viability -0.7.
`NC(=O)COc1ccc(C23CC4CC(CC(C4)C2)C3)cc1` gave V. cholerae motility 2.3% and V. cholerae motility viability -5.5.
O=C1C(c2ccccn2)=C(O)c2ccccc21 was read as V. cholerae motility 14.8% and V. cholerae motility viability 4.3.
COc1ccc(Cl)cc1NC(=O)N1CCN(c2cccc(C(F)(F)F)c2)CC1 was read as V. cholerae motility 13.6% and V. cholerae motility viability -1.3.
For O=C(Nc1c(Cl)cccc1Cl)C(Sc1ccccc1)c1ccccc1 (centres undefined) the results were V. cholerae motility -0.9% and V. cholerae motility viability 30.9.
Screening COc1ccc(NC(=O)c2cccc(Cn3cc(Br)cn3)c2)cn1 returned V. cholerae motility 19.2% and V. cholerae motility viability 0.3.
COc1cc(-c2nc3ccccc3s2)cc(Br)c1OCC(N)=O was read as V. cholerae motility -9.8% and V. cholerae motility viability -4.6.
O=C(c1ccccc1)c1ccc(OCC(O)CN2CCOCC2)cc1 (centres undefined) was read as V. cholerae motility -14.2% and V. cholerae motility viability -6.3.
Cc1nc(SCc2nc3ccccc3[nH]2)[nH]c(=O)c1C was read as V. cholerae motility 2.6% and V. cholerae motility viability 0.8.
`C=CCc1ccc(OCc2ccc(C(=O)O)o2)c(OC)c1` gave V. cholerae motility 0.4% and V. cholerae motility viability -3.9.

Looked up one by one from above, three records:
For O=C(Nc1c(Cl)cccc1Cl)C(Sc1ccccc1)c1ccccc1 (centres undefined) the results were V. cholerae motility -0.9% and V. cholerae motility viability 30.9.
COc1cc(-c2nc3ccccc3s2)cc(Br)c1OCC(N)=O was read as V. cholerae motility -9.8% and V. cholerae motility viability -4.6.
O=C(c1ccccc1)c1ccc(OCC(O)CN2CCOCC2)cc1 (centres undefined) was read as V. cholerae motility -14.2% and V. cholerae motility viability -6.3.
